D2 potentiator: positive allosteric modulators of human D2 dopamine receptor; P14416; potentiation, % (no concentration beside the values); AID 624464; DiscoveRx D2 beta-arrestin cells, luminescence, 90 min; 100% = 57 uM dopamine signal; hit rate 0.23% among 360,000; active = potentiation of 50% or more; inconclusive = 30% to 50%; inactive = 30% or less;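 also: compound concentration not given in the record; tested on top of an EC20 dose of dopamine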
Target sequence (P14416 whole entry, looked up): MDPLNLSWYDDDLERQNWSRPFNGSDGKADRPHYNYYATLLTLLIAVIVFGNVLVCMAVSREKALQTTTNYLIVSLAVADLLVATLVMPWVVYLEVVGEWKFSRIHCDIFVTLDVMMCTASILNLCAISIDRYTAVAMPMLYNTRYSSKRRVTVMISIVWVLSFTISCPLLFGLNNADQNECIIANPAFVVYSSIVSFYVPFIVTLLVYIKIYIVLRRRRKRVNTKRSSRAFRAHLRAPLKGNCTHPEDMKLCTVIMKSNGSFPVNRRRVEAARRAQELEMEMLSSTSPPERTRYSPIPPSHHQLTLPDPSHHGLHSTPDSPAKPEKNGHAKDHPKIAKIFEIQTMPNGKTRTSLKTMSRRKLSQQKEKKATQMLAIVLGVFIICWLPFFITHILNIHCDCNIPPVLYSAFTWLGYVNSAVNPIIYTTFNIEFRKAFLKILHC
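PathHunter D2 cells, attached overnight at 37 deg C, received compound in DMSO plus dopamine at EC20 (50 nM final) for 90 min at 37 deg C. Beta-arrestin recruitment was read as luminescence after 1 h with detection reagent at ambient temperature.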
ClpP mod: qHTS Assay for Activators of ClpP; purified B. subtilis ClpP, FRET peptide cleavage, 20 min; Potency, µM (titrated, usually from 57.5 µM), without a hit: top-dose activity change, negative = active; ATP-dependent Clp protease proteolytic subunit (Bacillus subtilis (strain 168)), P80244; AID 651965, 2013; hit rate 1.9% among 340,000; active = well fitted falling curve with a large enough effect; inconclusive = small, poorly fitted or top-dose-only effect; inactive = no such curve, though single readings can be large or run the other way; also: potency is read from the fitted curve at half-maximal effect; the source files actives as falling curves though it sought activators and does not explain the sign; nearly all actives have a fitted effect of over 65% in size; many hits overshoot -100%
Target sequence (P80244 whole entry, looked up): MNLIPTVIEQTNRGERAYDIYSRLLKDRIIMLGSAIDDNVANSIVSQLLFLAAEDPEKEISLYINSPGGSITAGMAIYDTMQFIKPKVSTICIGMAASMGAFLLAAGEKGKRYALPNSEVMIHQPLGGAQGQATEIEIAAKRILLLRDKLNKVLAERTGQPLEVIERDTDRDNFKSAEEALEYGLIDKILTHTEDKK
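ClpP 10 microg/mL final, pH 8 Tris/KCl buffer with BSA, glycerol, Tween-20; compound pinned in; FRET-FV substrate; RT 20 min; Ex320/Em430; ΔFRET vs ADEP 5.8 microM, DMSO, no enzyme.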
Numbers without * were called inactive; ? = inconclusive.

SMILES	D2 potentiator	ClpP mod
COc1ccc(Cc2c(-c3ccco3)nc3ccc(Br)cn23)c(C)c1	-5.9	-3.1%
CC1=CC(Cc2ccccc2)N(C)C(C(N)=O)C1 (centres undefined)	1.5	-3.2%
O=C(NC1CCCCC1)c1[nH]c(C(F)(F)F)nc1-c1ccccc1	-0.2	0.1%
CCCC(=O)N1CCC1(C)C(=O)NS(=O)(=O)c1cc(C)ccc1F (centres undefined)	-4.1	1.1%
CC1(Oc2ccc3ccccc3c2)CCN(Cc2ccc(OC(F)(F)F)cc2)C1 (centres undefined)	-5.4	-29.4%
CCCNC(=O)Nc1nc(C(N)c2ccc(OC)cc2)cs1 (centres undefined)	-8.6	-0.4%
CC(NC(=O)C1CCCN1C(=O)OC(C)(C)C)C(=O)OCc1ccccc1 (centres undefined)	0.5	1.9%
CCOC(=O)C1(C)CCCN(C(=O)c2cc(F)cc(F)c2)C1 (centres undefined)	-0.4	1.7%
CC(C)CNC(=O)C1(C)CCCCCN1C(=O)c1cccnc1 (centres undefined)	-1.6	2.1%
CCOC(=O)C1=CCN(S(=O)(=O)c2ccccc2C(=O)OC)C1c1ccc(Cl)cc1 (centres undefined)	-8.5	-1.5%
CCCCN(C)c1c(C)nc2ccc(C(=O)Nc3cc(-c4ccccc4)ccc3OC)cn12	-12.0	-6.7%
OC[C@@H]1CN(Cc2cccnc2)C[C@H](n2cnc3c(N4CCCC4)ncnc32)O1	-5.0	2.5%
CCCNC(=O)C1(C)CCN(C(=O)c2ccc(F)cc2Cl)C1 (centres undefined)	-3.8	0.0%
O=S1(=O)C[C@H](N2CC[C@@H](O)C2)[C@@H](COCc2ccccc2)N1	-3.8	0.7%
CC(=O)NCCNc1nc2cc(-c3ccccc3)sc2c(=O)n1C	-6.2	4.8%
Cn1ccc2c(-c3ccc4[nH]ccc4c3)cc3c(c21)C1CCC3O1 (centres undefined)	-2.7	4.8%
COc1ccc(CC(N)c2csc(NC(=O)Nc3ccccc3C(C)C)n2)cc1 (centres undefined)	-3.9	-0.9%
Nc1nc2c(ncn2[C@@H]2O[C@H](CNCc3ccc(Oc4cc(-n5cccn5)ncn4)cc3)[C@@H](O)[C@H]2O)c(=O)[nH]1	-14.6	2.5%
CC1(C(=O)O)CCCN(C(=O)c2cccnc2Oc2ccccc2)C1 (centres undefined)	1.5	0.6%
COc1ccc(-c2csc(C(C)(O)c3ccccc3)n2)cn1 (centres undefined)	-4.8	-2.4%
CC(=O)c1nn(-c2ccccc2)c(=Nc2ccccc2)cc1C	-5.8	-0.6%
CC(=O)c1cccc(-c2ccc3c(c2)C(C)(Cc2ccc(S(C)(=O)=O)cc2)C(=O)N3)c1 (centres undefined)	-5.5	-1.9%
O=C(Nc1nnc([C@@H]2O[C@H](CO)[C@@H](O)[C@H]2O)s1)Nc1ccccc1C(F)(F)F	-15.2	-0.7%
CCOC(=O)C1CCCN(C(=O)c2ccc3c(c2)CCO3)CC1 (centres undefined)	0.3	-3.8%
Nc1c(-c2cccs2)nc2ccccn12	14.8	-18.3%
Cc1ccc(NC(=O)C2(C)CCN2C(=O)Cc2ccccc2)cc1C (centres undefined)	-10.1	0.8%
Cn1nc(C2CC2)cc1NC(=O)C1(C)CCN1C(=O)CC(c1ccccc1)c1ccccc1 (centres undefined)	-19.1	-0.1%
CSc1ccccc1CNC(=O)C1(C)CCCN1CC(C)C (centres undefined)	-5.1	1.4%
CC1(C(=O)NS(=O)(=O)c2cccs2)CCN1C(=O)c1ccco1 (centres undefined)	-6.6	-1.1%
O=C1c2cccc(-c3ccc(C(F)(F)F)cc3)c2C2CCCCN12 (centres undefined)	0.3	1.8%
CC(C)Nc1ncnc2c1ncn2[C@H]1CN(Cc2ccc(Cl)cc2)C[C@@H](CO)O1	-4.5	-2.9%
COc1ccc(NC(=O)Cn2nnc(-c3ccccc3)c2COc2ccc3ccccc3c2)cn1	0.0	-23.0%
COc1ccc(-c2cnc3c(NC=O)cc(-c4ccc(F)cc4)cn23)cc1OC	15.7	?
COc1ccc(NC(=O)C2(C)Cc3c(-c4cccc(C(N)=O)c4)ccnc3O2)cc1 (centres undefined)	-1.8	0.4%
O=C(Nc1cccnc1)C1Cc2c(-c3cccc(F)c3)ccnc2O1 (centres undefined)	-8.5	-5.6%
COc1ccc(-c2ccc(C(=O)NCc3ccccc3)c3occc23)c(C)c1	-3.0	4.0%
Clc1ccc(-c2cccc3nccn23)c(Cl)c1	-6.8	4.4%
CC(=O)Nc1cc(-c2cccc(CO)c2)cn2c(-c3cccc(C(F)(F)F)c3)cnc12	-6.1	-10.7%
CC1(C(=O)O)CCCN1C(=O)c1ccco1 (centres undefined)	-5.5	1.2%
CC1(Cc2cccc(C#N)c2)C(=O)Nc2ccc(-c3cccc(C(F)(F)F)c3)cc21 (centres undefined)	-4.0	-5.4%

Record cards, as listed above. Values in the order: D2 potentiator | ClpP mod
Results for `Cn1nc(C2CC2)cc1NC(=O)C1(C)CCN1C(=O)CC(c1ccccc1)c1ccccc1` (centres undefined) = -19.1 | -0.1%
Results for `Cc1ccc(NC(=O)C2(C)CCN2C(=O)Cc2ccccc2)cc1C` (centres undefined) = -10.1 | 0.8%

The listing picks up with the 5 entries that preceded the break.
SMILES	D2 potentiator	ClpP mod
COc1ccc(-c2ccc(C(=O)NCc3ccccc3)c3occc23)c(C)c1	-3.0	4.0%
Clc1ccc(-c2cccc3nccn23)c(Cl)c1	-6.8	4.4%
CC(=O)Nc1cc(-c2cccc(CO)c2)cn2c(-c3cccc(C(F)(F)F)c3)cnc12	-6.1	-10.7%
CC1(C(=O)O)CCCN1C(=O)c1ccco1 (centres undefined)	-5.5	1.2%
CC1(Cc2cccc(C#N)c2)C(=O)Nc2ccc(-c3cccc(C(F)(F)F)c3)cc21 (centres undefined)	-4.0	-5.4%
CC1(C(=O)NS(=O)(=O)c2ccccc2Cl)CCN1C(=O)C1CCCCC1 (centres undefined)	-4.5	-3.8%
CCCCN(C)C(=O)c1sc(=O)n(Cc2ccccc2F)c1C	-2.6	1.0%
CCOC(=O)C1(C)CCCCCN1C(=O)c1ccc(C(=O)OC)cc1 (centres undefined)	-5.4	2.3%
Cc1ccccc1-c1csc(C(O)c2ccc(F)cc2)n1 (centres undefined)	-4.3	-0.7%
CN1CCN(C2CN(Cc3ccccc3)S(=O)(=O)C2)CC1 (centres undefined)	-5.0	1.8%
CC(C)(C)c1ccc(C(=O)N2CCC2(C)C(=O)Nc2cccc(C#N)c2)cc1 (centres undefined)	-2.1	-1.7%
C=CCCC(=O)N1C[C@H]2CCN(C)[C@H]2C[C@H]1c1ccccc1	-0.6	-2.6%
CSCCC(NC(=O)OCc1ccccc1)NC(=O)OCc1ccccc1	3.4	2.0%
CC1(C(=O)NS(=O)(=O)c2ccccc2Cl)CCN1C(=O)C1(c2ccc(Cl)cc2)CC1 (centres undefined)	6.4	1.2%
CCCNC(=O)C1(C)CCCN(Cc2ccc(-c3ccccn3)cc2)C1 (centres undefined)	-10.8	-2.8%
COc1ccc(-c2cnc3c(NC=O)cc(-c4cc(OC)c(OC)c(OC)c4)cn23)cc1OC	12.8	-17.2%
CCN1CCN(C(CCc2ccccc2)C(=O)NC2CCCCC2)CC1 (centres undefined)	-14.2	-2.5%
Cc1ccc(S(=O)(=O)NC(=O)C2(C)CCN2C(=O)Cc2cccs2)cc1 (centres undefined)	-6.1	-3.9%
COC(=O)N1CCCCC1c1cc(C(=O)Nc2ccc(OC)cc2C)no1 (centres undefined)	-7.9	-0.6%
CN(Cc1ccccc1)C(=O)c1csc([C@@H]2O[C@H](CO)[C@H](O)[C@H](O)[C@H]2O)n1	-0.1	-0.7%
COc1ccc(C(C)(NC(C)=O)c2nc(/C=C/c3ccccc3)cs2)cc1 (centres undefined)	-0.9	-3.8%
CCc1nc2ccc(C(=O)N3CCN(S(=O)(=O)CC)CC3)cn2c1N(CC)C(=O)NCCc1ccccc1	0.8	0.0%
COc1ccc(-c2ccc(C(=O)NC(C)C)c3occc23)c(C)c1	-5.9	4.4%
COCCNC(=O)C1(C)CCCN(C(=O)c2ccc(C(=O)OC)cc2)C1 (centres undefined)	-6.8	-1.6%
c1ccc(COc2ccc(-c3cc4nc(NCc5ccc6c(c5)OCO6)ccn4n3)cc2)cc1	1.6	4.6%
CNc1cncc(-c2cc(C)c(O)c(C)c2)n1	5.7	4.3%
COc1ccc(Cl)cc1CN1C(=O)C(Cc2ccccc2)ON=C1C (centres undefined)	-8.3	-2.7%
COc1ccc(C(C)=O)cc1Cn1c(C)c(C(=O)NCC(C)C)sc1=O	0.6	0.8%
COc1ccc(CNC(=O)C2Cc3c(-c4ccc5c(c4)OCO5)ccnc3O2)cc1OC (centres undefined)	1.6	5.0%
Cc1nc2c(OCc3ccc(F)cc3)cccn2c1N(C)C(=O)CCC1CCCC1	-9.9	-2.9%
Cc1ccc(NC(=O)Nc2nnc([C@H]3C[C@H](O)[C@@H](CO)O3)s2)cc1	-6.3	-9.2%
Cn1c(=O)c2c(-c3ccccc3)n(-c3cccc(Br)c3)cc2n(C)c1=O	1.3	-11.8%
Cc1ccc(CNc2nc(NCC3CC3)nc3ccsc23)c(C)c1	-20.2	-14.3%
CC(C)(C)S(=O)N1Cc2cc(C(=O)NCc3ccc(Oc4ccccc4)cc3)nc(-c3cccc(-c4cc5ccccc5o4)c3)c2[C@H]1CCO (some centres undefined)	3.8	18.6%
COc1cc(-c2cc(NC(C)=O)c3ncc(-c4ccc(F)cc4)n3c2)cc(OC)c1OC	-2.4	1.8%
O=C(Nc1cccc2[nH]c([C@H]3C[C@H](O)[C@@H](CO)O3)nc12)NC(c1ccccc1)c1ccccc1	3.1	-1.2%
CC(=O)Nc1cccc(-c2ccnc3c2CC(C)(C(=O)NCc2ccncc2)O3)c1 (centres undefined)	-3.7	-15.2%
CCCCn1c(OC(=S)N(CC)CC)cc(C)nc1=S	3.9	1.5%
CCCOc1ccc(F)cc1-c1cc(C(=O)NCc2cc(C(F)(F)F)cc(C(F)(F)F)c2)[nH]n1	-3.7	?
COc1c(C)cc(C(O)c2ncc(-c3cccc(F)c3)[nH]2)cc1C (centres undefined)	-6.1	-1.0%
CCCS(=O)(=O)NC(=O)C1(C)CCCN(C(=O)C(C)(C)Oc2ccc(Cl)cc2)C1 (centres undefined)	3.9	2.4%
COc1ccc(-n2nnnc2C(C2CC2)N2CCN(C/C=C/c3ccccc3)CC2)cc1 (centres undefined)	-13.0	0.8%
COc1cccc(-c2cnc3c(NC=O)cc(-c4cc(C)c(O)c(C)c4)cn23)c1	-1.0	4.5%
COc1ccccc1CNc1nc(NCc2cnc(C)cn2)c2sccc2n1	-10.2	-1.6%
Cc1c(C(=O)NCc2ccccc2C(F)(F)F)sc(=O)n1Cc1ccc(F)cc1	1.6	2.4%
COc1ccc(Cc2c(C3CCCCC3)nc3ccc(Br)cn23)c(C)c1	-12.3	-5.5%
OC(c1ccc2ccccc2c1)c1ncc(-c2ccc(C(F)(F)F)cc2)[nH]1 (centres undefined)	10.0	-8.5%
CC1(C(=O)NS(=O)(=O)c2ccc(F)cc2F)CCN1C(=O)c1ccccc1CCc1ccccc1 (centres undefined)	5.6	-0.2%
CCc1nc2ccc(C(=O)NCCCn3ccnc3)cn2c1N(CC)CCOC	1.1	-3.0%
COc1ccc(-c2nc3ccc(Br)cn3c2Cc2ccsc2)cc1OC	-12.7	-4.7%
C=C(C)Cn1c2ccc(NC(=O)CCc3cccnc3)cc2c(=O)n1C	-8.2	4.7%
CCNC(=O)C1(C)CCN(C(=O)c2ccc(-c3ccccc3)cc2)C1 (centres undefined)	-9.7	-2.0%
COc1ccc(NC(=O)C2Cc3c(-c4ccc(Cl)cc4)ccnc3O2)cc1OC (centres undefined)	-14.4	-1.9%
Cc1ccc(C(=O)Nc2nnc(COCCO)s2)cc1	-4.4	-9.4%
COc1ccc(CC(N)c2csc(Nc3cccc(OC)n3)n2)cc1 (centres undefined)	-15.7	-2.4%
CC(C)C[C@H]1CNC(=S)N1C[C@H]1CCCN1C[C@H](Cc1ccc(O)cc1)N1C[C@H](CC(C)C)N(CCc2ccccc2)C1=S	-11.5	-1.6%
COc1ccc(OC)c(NC(=O)C2(C)CCN2C(=O)Cc2ccc(Cl)cc2Cl)c1 (centres undefined)	-0.7	0.2%
Cc1ccc(Cc2c(-c3ccccc3)nc3c(Cl)cc(C(F)(F)F)cn23)cc1	-3.0	?
CN(C)CCNc1ncnc2c1ncn2[C@H]1CN(Cc2ccc(-c3ccccc3)cc2)C[C@@H](CO)O1	-14.2	-0.2%
O=C(NCC1CC1)c1csc([C@@H]2O[C@H](CO)[C@H](O)[C@H](O)[C@H]2O)n1	-10.9	-0.3%
COc1ccc2c(CN3CCN(c4ccccc4OC)CC3)cc(=O)oc2c1	-11.6	-24.3%
Cc1ccc(C(O)c2ncc(-c3ccc(Cl)cc3)[nH]2)cc1F (centres undefined)	-19.5	1.2%
CCCCNc1nccnc1-c1cccc(C=O)c1	-4.2	4.6%
C=CCNc1nc2cc(-c3ccccc3OC)sc2c(=O)n1C	-9.3	?
COCc1cccc(-c2csc(C(C)(NC(C)=O)c3ccc(OC)cc3)n2)c1 (centres undefined)	-3.7	-0.2%

Compounds shown so far with a COOH group, in the order listed:
SMILES	D2 potentiator	ClpP mod
CC1(C(=O)O)CCCN(C(=O)c2cccnc2Oc2ccccc2)C1 (centres undefined)	1.5	0.6%
CC1(C(=O)O)CCCN1C(=O)c1ccco1 (centres undefined)	-5.5	1.2%

Bioassay records (PubChem)

Some of the compounds tested; the hit share may differ from the screen's.
